High-throughput results: PubChem, Broad Institute
rRNA inh HTS: selective bacterial rRNA inhibition in E. coli; AID 720706; E. coli WT GFP vs humanized-ribosome RFP mutants, fluorescence, 24 h; stronger effect = lower value; DMSO median 0, no signal -100; GFP signal change (wild-type ribosome), % (test concentration not listed); hit rate 1.6% among 350,000;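 active means significant combined selectivity score with lowered wild-type GFP, culture density cut under 30%, mutant RFP and density less affected; inactive means any of these conditions unmet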; further: one replicate is shown; some compounds called inactive have numbers as strong as hits
rRNA inh HTS OD600: further read-out of rRNA inh HTS, marked with its call; OD600 change, %; measured here: OD600 growth;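 optical density of the mix in the first replicate; 0 = DMSO median and -100 = no signal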
rRNA inh HTS RFP: recorded beside rRNA inh HTS, whose call it bears; RFP signal change, %; measured here: RFP humanized mutant strains;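 first replicate; 0 = DMSO median and -100 = no signal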
* hit, by the source's call; & = joins results of further samples. Not all compounds are listed (hit frequency here may not be typical).

SMILES | rRNA inh HTS | rRNA inh HTS OD600 | rRNA inh HTS RFP
CC1(Cc2ccccc2C#N)C(=O)Nc2cc(-c3ccccc3Cl)ccc21 (stereo unspecified) | -11* | -1.3* | 4.6*
C[C@@H]1CN([C@H](C)CO)C(=O)c2cc(NC(=O)C3CCCCC3)ccc2O[C@H]1CN(C)C(=O)Nc1ccc2c(c1)OCO2 | 2 | 5 | 0.2
C/C=C/c1ccc([C@H]2[C@@H](CO)N(C(=O)CN(C)C)[C@H]2CN(C)C(C)=O)cc1 | 2 | 13 | -3.6
O=C(CN1CCOCC1)N1CC[C@H]2[C@H](CO)Nc3ccc(-c4ccc(F)cc4)cc3[C@H]21 | 0 | 7 | 2.6
CCCNC(=O)C[C@@H]1C[C@@H]2c3cc(NC(=O)CN(C)C)ccc3O[C@@H]2[C@H](CO)O1 | 3 | 0 | -1.5
CC(C)NC(=O)Nc1ccc2c(c1)CC(=O)N([C@@H](C)CO)C[C@H](C)[C@H](CN(C)C(=O)NC(C)C)O2 | 6 | 6 | -0.7
C[C@H]1CN([C@@H](C)CO)C(=O)Cc2cc(NC(=O)c3ccncc3)ccc2O[C@@H]1CN(C)CC1CCCCC1 | -1 | 3 | -2.5
C[C@H](CO)N1C[C@H](C)[C@@H](CN(C)C(=O)C2CCOCC2)Oc2cc(-c3ccc(F)cc3)ccc2S1(=O)=O | -1 | -3 | -0.6
C[C@@H]1CCCCO[C@H](CN(C)S(=O)(=O)c2ccc(F)cc2)[C@H](C)CN([C@@H](C)CO)C(=O)c2cc(NC(=O)Nc3cccc4ccccc34)ccc2O1 | 1 | 4 | -2.1
O=C(Nc1nnc(-c2ccco2)o1)c1ccc(S(=O)(=O)N2CCCCC2)cc1 | -36 | -60 | -7.4
CC(C)COC(=O)N(C)C[C@H]1OCc2cn(nn2)CCCC(=O)N([C@@H](C)CO)C[C@H]1C | 2 | -1 | -0.9
O=C(c1cnc(Cc2c[nH]c3ccccc23)c(I)c1)N1CCCCC1 | -24* | -9.3* | 5.6*
COc1ccc(CNC(=O)N(C)C[C@@H]2OCc3ccccc3-c3ccccc3C(=O)N([C@H](C)CO)C[C@H]2C)cc1 | -1 | -8 | -3.9
CC(C)NC(=O)Nc1ccc2c(c1)C(=O)N([C@@H](C)CO)C[C@@H](C)[C@@H](CN(C)S(=O)(=O)c1ccc(F)cc1)OCCCC[C@H](C)O2 | -1 | -4 | 1.0
CN(C)CCN1CCN(C2CN(C3CCCCC3)S(=O)(=O)C2)CC1 (stereo unspecified) | 33 | 14 | -0.1
CN(C)C(=O)c1cccc(-c2ccccc2[C@@H]2[C@@H](C#N)N(C(=O)C3CCC3)[C@@H]2CO)c1 | 1 | 7 | -0.5
COc1ccc(C=C2CCc3ccccc3C2=O)cc1 | -15 | -29 | -2.1
Cc1ccc(-c2nc3c(Cl)cc(C(F)(F)F)cn3c2Cc2ccccc2)cc1 | 2 | -3 | -1.7
COc1ccccc1CNCc1ccc2c(c1)OCO2 | 3 | 3 | 0.7
COc1ccccc1OCC(=O)Nc1ccc(C(=O)Nc2ccccc2C(=O)O)cc1 | -46 | -68 | -13
CC(C)(C)NC1=NCCNC(c2ccccc2)=C1 | 14 | 12 | -0.6
O=C(C1CCCC1)N1CC[C@@H]2[C@H](CO)Nc3ccc(C#Cc4ccc(F)cc4)cc3[C@@H]21 | -1 | 27 | 3.4
O=C(C[C@H]1CC[C@H]2[C@@H](COC[C@@H](O)CN2C(=O)c2ccccc2F)O1)NCc1ccc(Cl)c(Cl)c1 | -1 | 4 | -2.1
CCCN(C)C[C@@H]1OCCCC[C@@H](C)Oc2ccc(NS(=O)(=O)c3c(C)noc3C)cc2C(=O)N([C@H](C)CO)C[C@@H]1C | 1 | 11 | -1.0
CNC[C@@H]1OCCCC[C@H](C)Oc2ccc(NS(=O)(=O)c3ccc(OC)cc3)cc2C(=O)N([C@H](C)CO)C[C@@H]1C | 5 | 6 | -1.6

Following part
SMILES | rRNA inh HTS | rRNA inh HTS OD600 | rRNA inh HTS RFP
O=C(C[C@@H]1CC[C@@H](NC(=O)c2cccc(F)c2)[C@@H](CO)O1)NCc1ccc(Oc2ccccc2)cc1 | -9 | -40 | 20
O=C(C[C@@H]1CC[C@H]2[C@@H](COC[C@@H](O)CN2C(=O)c2ccccc2F)O1)NCc1ccc(Cl)cc1 | 0 | -1 | 3.1
CN(C)C(=O)C[C@H]1CC[C@H]2[C@@H](COc3ccc(NC(=O)NCc4ccccc4)cc3C(=O)N2C)O1 | 4 | 3 | 0.2
CC(C)NC(=O)Nc1cccc2c1O[C@H](CN(C)CC1CCCCC1)[C@H](C)CN([C@@H](C)CO)C2=O | 1 | -1 | 1.0
C[C@@H]1CCCCO[C@@H](CN(C)C(=O)Nc2ccccc2)[C@@H](C)CN([C@@H](C)CO)C(=O)c2cc(NC(=O)Nc3ccc(F)cc3)ccc2O1 | 5 | 13 | -0.3
Cc1ccc(S(=O)(=O)Nc2ccc3c(c2)C(=O)N([C@@H](C)CO)C[C@H](C)[C@H](CN(C)C(=O)Nc2ccc(F)cc2)OCCCC[C@@H](C)O3)cc1 | 2 | 6 | 0.2
COc1cc(C(O)c2nc(-c3cccc(C(C)C)c3)cs2)ccc1F (stereo unspecified) | -51 | -74 | -15
COc1ccc(S(=O)(=O)N(C)C[C@@H]2Oc3ccc(NC(=O)CCCN(C)C)cc3C(=O)N([C@@H](C)CO)C[C@@H]2C)cc1 | 1 | 8 | 4.0
CCNC(=O)C[C@H]1CC[C@H]2[C@@H](COC[C@H](O)CN2Cc2ccncc2)O1 | -1 | 9 | -2.3
OC[C@@H]1CN(CCN2CCOCC2)C[C@H](n2cnc3c(NCc4ccc(F)cc4)ncnc32)O1 | 15 | 26 | 15
COc1ccc(CN(C)C[C@@H]2OCCCC[C@H](C)Oc3ccc(NC(=O)Cc4ccccc4)cc3C(=O)N([C@@H](C)CO)C[C@H]2C)cc1 | -2 | -9 | -0.1
C[C@@H]1CN([C@@H](C)CO)S(=O)(=O)c2ccc(C#CCC3CCCC3)cc2O[C@H]1CN(C)C(=O)c1cnccn1 | -10 | -37 | 1.4
Cc1noc(C)c1NC(=O)N[C@H]1C=C[C@H](CC(=O)N2CCN(C)CC2)O[C@H]1CO | 3 | -1 | -3.4
CC(C)C#Cc1ccc2c(c1)O[C@@H](CN(C)C(=O)CC1CC1)[C@@H](C)CN([C@@H](C)CO)S2(=O)=O | -6 | -4 | -2.0
C[C@@H](NC(=O)[C@@H]1[C@@H](CO)[C@@H]2Cn3c(ccc(C4=CCCCC4)c3=O)[C@@H]2N1C)c1ccccc1 | -7 | -11 | 1.4
CNC[C@@H]1OCCCC[C@H](C)Oc2ccc(NC(=O)c3ccccc3)cc2C(=O)N([C@@H](C)CO)C[C@H]1C | 6 | 7 | 1.3
COCC(=O)N1CC2(C1)CN(Cc1cccc(OC)c1)[C@H](CO)c1[nH]c3cc(OC)ccc3c12 | 1 | 0 | -2.8
CC(C)NC(=O)Nc1ccc2c(c1)C(=O)N([C@@H](C)CO)C[C@@H](C)[C@@H](CN(C)CC1CCCCC1)OCCCC[C@H](C)O2 | -1 | 2 | -2.0
Cc1cc2nc(NC(=O)C3(C)CCN(C)C3)[nH]c2cc1C (stereo unspecified) | 16 | 15 | -1.1
CN(C)C(=O)C[C@H]1CC[C@@H]2[C@@H](COc3ccc(NC(=O)C4CCCC4)cc3C(=O)N2C)O1 | 2 | 9 | -0.8
COc1ccccc1-c1ccc([C@@H]2[C@@H](C#N)N(C(=O)C3CCC3)[C@H]2CO)cc1 | 1 | 3 | -0.2
COc1ccc2c3c(n(C)c2c1)[C@H](CO)N(C(C)=O)CC31CN(C(=O)Nc2ccc(F)cc2)C1 | -4 | -4 | -1.4
Cc1noc(C)c1S(=O)(=O)Nc1cccc2c1O[C@@H](CN(C)S(=O)(=O)c1ccc(Cl)cc1)[C@@H](C)CN([C@@H](C)CO)C2=O | -2 | -1 | 1.4
Cc1cccc(C(O)c2ncc(-c3ccccc3)[nH]2)c1C (stereo unspecified) | 4 | 6 | 1.1
CCC(=O)N1CCCCN2[C@H](C1)[C@H](c1ccc(-c3cccc(C(=O)N(C)C)c3)cc1)[C@@H]2CO | 4 | 10 | 1.1

Following part
SMILES | rRNA inh HTS | rRNA inh HTS OD600 | rRNA inh HTS RFP
Cc1cccnc1C(NC(=O)C1CCN(CCOc2ccc(F)cc2)CC1)c1ccc(Cl)cc1 (stereo unspecified) | -53 | -80 | -18
COc1ccc(S(=O)(=O)N[C@H]2CC[C@@H](CCNC(=O)c3ccccc3F)O[C@H]2CO)cc1 | 0 | 2 | -3.2
CCCNC(=O)C[C@H]1CC[C@H]2[C@@H](COC[C@@H](O)CN2S(=O)(=O)c2ccc(Oc3ccccc3)cc2)O1 | -2 | -8 | 0.1
C[C@@H]1CN([C@@H](C)CO)C(=O)Cc2cc(NC(=O)c3ccncc3)ccc2O[C@H]1CN(C)Cc1ccc(C(=O)O)cc1 | 3 | -10 | 2.2
CCCC(=O)Nc1ccc2c(c1)OC[C@@H](C)N(CCC(F)(F)F)C[C@H](C)[C@@H](OC)CN(C)C2=O | -4 | -10 | 3.4
COc1ccc(S(=O)(=O)N(C)C[C@H]2Oc3ccc(NS(=O)(=O)c4ccc(F)cc4)cc3CC(=O)N([C@@H](C)CO)C[C@@H]2C)cc1 | -4 | -9 | 0.7
Cc1cccc(S(=O)(=O)N2C[C@@H](O)COC[C@H]3O[C@H](CC(=O)NCc4ccc5c(c4)OCO5)CC[C@@H]32)c1 | 1 | 2 | 1.9
C[C@@H]1CN([C@@H](C)CO)C(=O)CCCn2cc(nn2)CO[C@H]1CN(C)C(=O)Cc1ccccc1 | -2&16 | -6&11 | -3.7&2.2
COc1ccc(CN(C)C[C@H]2Oc3ccc(NC(=O)Cc4ccccc4)cc3C(=O)N([C@@H](C)CO)C[C@H]2C)cc1 | -3 | -2 | -1.7
COCC(=O)N1C[C@@H](C)[C@H](OC)CN(C)C(=O)c2ccc(NC(=O)c3ccc(F)cc3)cc2OC[C@@H]1C | -4 | -2 | -2.3
C[C@H]1CCCCO[C@@H](CN(C)C(=O)Cc2ccccc2)[C@@H](C)CN([C@@H](C)CO)C(=O)c2cc(NS(C)(=O)=O)ccc2O1 | -4 | 4 | 1.9
C=CS(=O)(=O)N(C(=C)C(=O)OC)S(C)(=O)=O | 11 | 14 | -3.8
COc1ccc(CN(C)C[C@H]2Oc3ccc(NS(=O)(=O)c4ccc(Cl)cc4)cc3CC(=O)N([C@H](C)CO)C[C@@H]2C)cc1 | 0 | -27 | 5.0
C[C@@H]1CN([C@@H](C)CO)C(=O)c2cccc(NC(=O)C3CC3)c2O[C@@H]1CN(C)S(=O)(=O)c1cccs1 | 1 | 0 | 1.9
CC1C=NC(S(=O)(=O)N2CC[C@@H]3[C@H](CO)N(C)c4ccc(-c5cccc(F)c5)cc4[C@@H]32)=N1 (stereo partly specified) | -11 | -3 | -4.2
C[C@H]1CN([C@@H](C)CO)S(=O)(=O)c2ccc(C#CCN(C)C)cc2O[C@H]1CN(C)Cc1ccc(F)cc1 | -7 | -5 | 3.2
Cc1ccc(S(=O)(=O)N[C@H]2C=C[C@@H](CC(=O)NCc3ccccc3F)O[C@H]2CO)cc1 | -5 | -6 | 1.8
Cc1ccc(S(=O)(=O)N(C)C[C@@H]2OCCCC[C@@H](C)Oc3ccc(NS(=O)(=O)c4ccccc4)cc3C(=O)N([C@@H](C)CO)C[C@@H]2C)cc1 | 1 | 8 | 6.4
COCC#Cc1cnc2c(c1)C(=O)N([C@@H](C)CO)C[C@@H](C)[C@H](CN(C)C(=O)Cc1ccccc1)O2 | -1 | 1 | -4.5
C[C@@H]1CN([C@H](C)CO)C(=O)c2cccc(NC(=O)C3CCCCC3)c2O[C@@H]1CN(C)Cc1ccccc1 | -3 | -4 | -0.5
COc1ccc(CNC(=O)C[C@@H]2CC[C@@H](NC(=O)c3cccc(F)c3)[C@@H](CO)O2)cc1 | 0 | 1 | 0.6
C[C@@H]1CN([C@@H](C)CO)C(=O)c2cc(NS(=O)(=O)c3ccccc3)ccc2O[C@@H]1CN(C)CC1CC1 | 1 | -1 | -0.6
O=C1CC(c2ccccc2)CC2=C1C1(CCCC1)N=C(Nc1nc3ccccc3o1)N2 (stereo unspecified) | 1 | 4 | 2.0

4 of these compounds, reformatted.
O=C1CC(c2ccccc2)CC2=C1C1(CCCC1)N=C(Nc1nc3ccccc3o1)N2 (stereo unspecified)
  rRNA inh HTS = 1
  rRNA inh HTS OD600 = 4
  rRNA inh HTS RFP = 2.0
COc1ccc(CN(C)C[C@H]2Oc3ccc(NC(=O)Cc4ccccc4)cc3C(=O)N([C@@H](C)CO)C[C@H]2C)cc1
  rRNA inh HTS = -3
  rRNA inh HTS OD600 = -2
  rRNA inh HTS RFP = -1.7
COCC(=O)N1C[C@@H](C)[C@H](OC)CN(C)C(=O)c2ccc(NC(=O)c3ccc(F)cc3)cc2OC[C@@H]1C
  rRNA inh HTS = -4
  rRNA inh HTS OD600 = -2
  rRNA inh HTS RFP = -2.3
C[C@H]1CCCCO[C@@H](CN(C)C(=O)Cc2ccccc2)[C@@H](C)CN([C@@H](C)CO)C(=O)c2cc(NS(C)(=O)=O)ccc2O1
  rRNA inh HTS = -4
  rRNA inh HTS OD600 = 4
  rRNA inh HTS RFP = 1.9

Full records, looked up by structure. Screens in order: rRNA inh HTS | rRNA inh HTS OD600 | rRNA inh HTS RFP
Record of Cc1cccc(S(=O)(=O)N2C[C@@H](O)COC[C@H]3O[C@H](CC(=O)NCc4ccc5c(c4)OCO5)CC[C@@H]32)c1 = 1 | 2 | 1.9
Record of C[C@H]1CN([C@@H](C)CO)S(=O)(=O)c2ccc(C#CCN(C)C)cc2O[C@H]1CN(C)Cc1ccc(F)cc1 = -7 | -5 | 3.2
Record of COc1ccc(S(=O)(=O)N[C@H]2CC[C@@H](CCNC(=O)c3ccccc3F)O[C@H]2CO)cc1 = 0 | 2 | -3.2
